Screens (PubChem)
Sa helicase inh: inhibitors of S. aureus replicative helicase, primary screen, biochemical, fluorescence unwinding readout; replicative DNA helicase (DnaC/DnaB), Staphylococcus aureus; AID 485395, 2010; purified S. aureus helicase, fluorescence unwinding assay; about half of the hits fall short of the stated cut; 0.05% of 120,000 active; inhibition, %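 (tested at about 80 µM)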;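 active = both duplicates at 50% or more, or one of them with a favoured structure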;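 note: 0% = mean of negative control wells and 100% = mean of positive control wells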
MgrA DNA FP: S. aureus MgrA activity modulators, primary screen, biochemical, S. aureus Newman, fluorescence polarization. MgrA-DNA binding. 0.13% of 84,000 active. inhibition, %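 (about 10 µg/mL by stock and volumes)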;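 active = above 50% in either of two replicates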;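 note: 0% = protein plus DNA without compound and 100% = DNA alone without protein; higher means less MgrA bound to DNA so lower polarization; one replicate is shown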
* marks the source's active call; other numbers are inactive results; / = no result given. Only part of the results is shown (hit frequency here may not be typical).

SMILES | Sa helicase inh | MgrA DNA FP
CC(c1nnc(SCc2ccc(C#N)cc2)n1-c1ccc(Cl)cc1)N1CCCCC1 (configuration not stated) | -8.0 | /
Nc1c(Cl)cc(C(=O)Nc2cc(Cl)cc(Cl)c2)cc1Cl | / | -1.4
N#Cc1ccc(S(=O)(=O)c2ccc(Cl)cc2)nc1 | / | -0.5
CC(=O)N1c2ccccc2NC2=C(C(=O)CCC2)C1c1ccc(Cl)cc1 (configuration not stated) | 9.0 | 0.4
CC(C)CNC(=O)c1ccc(CN2CCOCC2)cc1 | 10.0 | -2.0
Nc1nc2c(c(Nc3ccccc3)n1)C(=O)CC(c1ccccc1)C2 (configuration not stated) | 14.0 | 4.4
Cc1c(C(=O)NC(=S)Nc2ccc(N3CCCCC3)c(Cl)c2)oc2ccccc12 | -12.0 | /
COc1ccc(OC)c(S(=O)(=O)c2c(OC)ccc(OC)c2C(=O)O)c1 | 3.0 | -3.2
Cc1ccc(N2CCN(C(=O)c3ccccc3)CC2)c(C)c1 | 20.0 | 2.4
O=S(=O)(c1ccc(Nc2nc3ccccc3n3nnnc23)cc1)N1CCOCC1 | -3.0 | -1.0
Fc1ccc(N2CCN(C3C4CC5CC(C4)CC3C5)CC2)cc1 (configuration not stated) | 17.0 | -4.4
COc1cc(-c2nnc(SCC(=O)NC(=O)c3ccc(C(C)(C)C)cc3)o2)cc(OC)c1OC | -3.0 | /
CCOc1ccc2nc(Nc3ncc4c(n3)CCCC4=O)nc(C)c2c1 | 9.0 | -1.9
COC(=O)c1c(C)nc(C)c(C(=O)OC)c1-c1ccc(OC)cc1 | / | 0.4
CCCn1c(=O)c(C#N)cn(-c2ccccc2C)c1=O | -16.0 | /
COc1ccc(N2C(=O)CCC(C(=O)N3CCN(c4ccccc4)CC3)C2c2ccc(F)cc2)cc1 (configuration not stated) | 5.0 | -0.5
Cc1ccc(N2CC(C(=O)OCC(=O)c3ccc[nH]3)CC2=O)cc1 (configuration not stated) | -5.0 | /
CCOC(=O)CSc1nc(C)cc(=O)[nH]1 | 18.0 | /
Cc1csc(=O)n1CCSc1nnc(-c2cccs2)n1-c1ccccc1 | 10.0 | /
NC1=NC(=O)C(CC(=O)Nc2ccc(Cl)c(C(F)(F)F)c2)S1 (configuration not stated) | 18.0 | /
O=C(COc1ccccc1)NCc1ccc2[nH]c3c(c2c1)CCCC3 | 3.0 | /
CCc1ccc(NC(=O)C23CC4CC(CC(C4)C2)C3)cc1 | 1.0 | -1.1
O=C1CSCC(=O)N1c1ccccc1N1CCOCC1 | / | 0.3
FC(F)(F)c1cccc(-c2nnc(-c3ccc(Cl)cc3Cl)o2)c1 | / | -1.7
CCOC(=O)c1c(NC(=O)CN(CC)CC)sc2c1CCC/C2=N\O | 10.0 | -1.1
Additional structures.
SMILES | Sa helicase inh | MgrA DNA FP
Cc1ccc(/C=C2\N=C(c3ccccc3)OC2=O)cc1 | / | 2.8
CC(C)N1CCc2[nH]c(=S)[nH]c(=O)c2C1 | -27.0 | /
Cc1csc(NC(=O)CSCC(=O)O)c1-c1nc2ccccc2s1 | / | 14.2
CCc1ccc(NC(=S)N(Cc2ccco2)C2CCN(C(C)C)CC2)cc1 | -12.0 | /
OC(COc1ccc2c(c1)CCC2)CN1CCCCC1 (configuration not stated) | -5.0 | /
Cc1noc(C)c1COc1ccc2ccc(=O)oc2c1 | -23.0 | /
CC(=O)[C@H]1[C@H](C#N)C[C@H]2[C@@H]3CC=C4C[C@@H](O)CC[C@]4(C)[C@H]3CC[C@@]21C | / | 0.0
COC(=O)COc1ccc(/C=C2\C(=O)NC(=S)N(c3ccc(OC)cc3)C2=O)cc1OC | / | 7.7
Cc1ccccc1OCCC(=O)NCCc1ccccn1 | 7.0 | /
C=CCn1c(Cc2nc3ccccc3[nH]2)n[nH]c1=S | -5.0 | -0.6
COc1ccc(C/C(N)=N/OC(C)=O)cc1OC | 15.0 | -0.8
O=S(=O)(c1ccccc1C(F)(F)F)N1CCN(S(=O)(=O)c2ccccc2C(F)(F)F)CC1 | -3.0 | -1.1
Cc1cccc(NC(=O)N2CCCC2C(=O)Nc2ccccc2)c1 (configuration not stated) | 2.0 | 3.8
c1ccc(-c2ccc(Oc3cnccn3)cc2)cc1 | -2.0 | /
O=C(NCc1ccccc1)c1cccc2c1C(=O)N(C1CCCCC1)C2 | 15.0 | 4.0
O=C(Nc1nnc(CCS(=O)(=O)c2ccc3ccccc3c2)s1)c1ccc([N+](=O)[O-])cc1 | / | -1.0
Cc1ccc2[nH]c(C(F)(F)F)cc(=O)c2c1 | / | 1.7
Cc1cccc(N=Cc2c(C)c(C#N)c3[nH]c4ccccc4n3c2=O)c1C | -37.0 | 1.1
Nn1c(SCC(=O)Nc2ccccc2Oc2ccccc2)nnc1C1CC1 | -14.0 | /
Brc1ccccc1OCc1nc2ccccc2[nH]1 | -3.0 | -1.6
O=c1c(=O)n(Cc2ncc(-c3ccccc3)o2)c2cc(Cl)ccc2n1Cc1ccccc1 | 4.0 | /
CC1=NN(c2ccccc2)C(=O)/C1=C/c1cn(CC(O)CN2CCCCC2)c2ccccc12 (configuration not stated) | 30.0 | 1.9
CC(C)COC(=O)c1ccc(O)cc1 | -1.0 | /
COc1cc(C(F)(F)F)c(C(=O)N(C)Cc2ccccc2Cl)cn1 | / | 0.4
COc1ccc(C(=O)N[C@H]2COC(C)(C)O[C@H]2c2ccccc2)cc1 | 8.0 | /

Six of these compounds in a different format:
Every second line gives: Sa helicase inh, MgrA DNA FP
- Nn1c(SCC(=O)Nc2ccccc2Oc2ccccc2)nnc1C1CC1
→ -14.0, /
- Brc1ccccc1OCc1nc2ccccc2[nH]1
→ -3.0, -1.6
- O=c1c(=O)n(Cc2ncc(-c3ccccc3)o2)c2cc(Cl)ccc2n1Cc1ccccc1
→ 4.0, /
- CC1=NN(c2ccccc2)C(=O)/C1=C/c1cn(CC(O)CN2CCCCC2)c2ccccc12 (configuration not stated)
→ 30.0, 1.9
- CC(C)COC(=O)c1ccc(O)cc1
→ -1.0, /
- COc1cc(C(F)(F)F)c(C(=O)N(C)Cc2ccccc2Cl)cn1
→ /, 0.4

Further results follow:
SMILES | Sa helicase inh | MgrA DNA FP
Cc1ccc(Cn2c(SCC(O)CO)nc3c2c(=O)[nH]c(=O)n3C)cc1 (configuration not stated) | 9.0 | /
CCCn1c(SCC(=O)Nc2ccccc2)n[nH]c1=O | 3.0 | /
CCCC1CC(c2csc(C)n2)CCO1 (configuration not stated) | -2.0 | -8.0
CN(C(=O)C1CC(c2ccccc2F)=NO1)c1ccccc1 (configuration not stated) | -2.0 | -4.5
N#C/C(=C\c1ccc(-c2cccc(Cl)c2)o1)C(N)=O | -4.0 | -0.3
CC(C)(C)c1nc2scc(-c3ccc(Cl)cc3)n2n1 | / | -1.4
O=C(Oc1cccc2cccnc12)c1ccccc1F | 9.0 | /
CC(C)C(=O)c1cn(CC(=O)NCC2CCCO2)c2ccccc12 (configuration not stated) | 11.0 | 1.4
O=S(=O)(c1ccc2nnn(O)c2c1)N1CCCCC1 | -5.0 | /
Cc1cc(OCC(N)=O)c(C(C)C)cc1Cl | -25.0 | 4.2
CCc1cccc(C)c1NC(=O)CCC(=O)N1CCOc2ccccc21 | 12.0 | 0.9
O=C(CCc1ccccc1)Nc1ccc2[nH]c(=O)oc2c1 | -5.0 | /
CCN(CC)C(=O)N1CCC(C(=O)OC)CC1 | -9.0 | -3.4
COC(=O)c1sc(SC)nc1N | / | 2.8
O=C(O)CCC(=O)N1N=C(c2c(-c3ccccc3)c3cc(Cl)ccc3[nH]c2=O)CC1c1ccc(Br)cc1 (configuration not stated) | / | 13.8
CCCCNC(=O)c1cc(-c2cccs2)on1 | 39.0 | /
Cc1ccccc1NC(=O)N1CCN(Cc2ccccc2)CC1 | 5.0 | -0.4
CN(C)C(=O)CCSc1nc2cc(Cl)ccc2o1 | 9.0 | 0.1
C=CCOC(=O)C1=C(C)N(CC)C(=O)NC1c1cc(Br)c(O)c(OC)c1 (configuration not stated) | / | -1.2
C=C1c2ccccc2C(=O)N1c1cc(Cl)cc(Cl)c1 | / | 0.4
CCOC(=O)c1c(C)noc1-c1csc(-c2cccc(C(F)(F)F)c2)n1 | 7.0 | /
O=C(Cn1sc2ccccc2c1=O)N1CCN(c2ccccc2)CC1 | 3.0 | 0.1
CC(Oc1ccc(Cl)cc1Cl)C(=O)N(C)C (configuration not stated) | -2.0 | 0.1
CNc1ccccc1C(=O)NCCc1ccccc1 | / | -2.1
Cc1nc(=O)c(-c2ccccc2)c(C)n1CCN1CCCCC1 | -14.0 | /

Among those listed so far, 3 have bromine.
SMILES | Sa helicase inh | MgrA DNA FP
Brc1ccccc1OCc1nc2ccccc2[nH]1 | -3.0 | -1.6
O=C(O)CCC(=O)N1N=C(c2c(-c3ccccc3)c3cc(Cl)ccc3[nH]c2=O)CC1c1ccc(Br)cc1 (configuration not stated) | / | 13.8
C=CCOC(=O)C1=C(C)N(CC)C(=O)NC1c1cc(Br)c(O)c(OC)c1 (configuration not stated) | / | -1.2

(next part)
SMILES | Sa helicase inh | MgrA DNA FP
O=C(/C=C/c1ccccc1)N1CCN(CCN2C(=O)C3C4C=CC(C4)C3C2=O)CC1 (configuration not stated) | -2.0 | 1.9
O=C(OCc1nnc(-c2ccccc2)o1)c1cccc(S(=O)(=O)N2CCCC2)c1 | 3.0 | /
CCCCCCCCCCCCSc1nnc(N)s1 | / | -0.3
N#Cc1sc(-c2ccc(F)cc2)cc1N | / | -1.3
Cc1nc(Nc2nc3ccccc3o2)[nH]c(=O)c1C | -30.0 | /
Cc1ccccc1Nc1nc(N)nc(CN2C(=O)CS/C2=C\C(=O)C(C)(C)C)n1 | 19.0 | /
CCn1c(-c2ccc(C)cc2)cs/c1=N\N=C/c1ccc(O)c(OC)c1 | -6.0 | /
Nc1ccc(Sc2nc3ccccc3s2)c(Cl)c1 | 23.0 | /
CC(C)(C)C(=O)Nc1ccccc1C(=O)NCc1cccnc1 | / | -1.5
OC(COc1ccc(OCC(O)CN2CCCC2)cc1)CN1CCCC1 (configuration not stated) | -1.0 | /
NNCc1c(Cl)cccc1Cl | -3.0 | 16.6
CCOc1ccc(NC(=O)CN2C3CCC2CC(=O)NC3)cc1 (configuration not stated) | 18.0 | -0.9
CCC(C)c1ccccc1NC(=O)c1ccc(=O)n(C)n1 (configuration not stated) | -15.0 | /
C=CCN(CC=C)C(=O)c1cc(-c2ccccc2)nc2ccccc12 | 5.0 | 1.4
COc1ccc(S(=O)(=O)N2CCCC(C(=O)NCCN3CCOCC3)C2)cc1C (configuration not stated) | 3.0 | 0.8
CC(C)Sc1nnc(NC(=O)C(C)C)s1 | 8.0 | /
CCOC(=O)/C(=C\c1cc(Br)c(O)c(OC)c1)C1=Nn2c(C)nnc2SC1 | -21.0 | /
COc1ccc(C(=O)N2c3ccccc3CC2C)cc1 (configuration not stated) | -5.0 | 2.7
CCOC(=O)c1[nH]c(=O)[nH]c1CSCCO | 4.0 | -2.9
CC(=O)Nc1c(-c2cccs2)nc2ncccn12 | 4.0 | /
Cc1nc2ncnn2c(C)c1Cc1c(Cl)cccc1Cl | / | -3.0
O=C(NCC(F)(F)F)c1ccc2c(c1)OCO2 | -5.0 | /
c1csc(CNc2ccc(NCc3cccs3)cc2)c1 | -15.0 | 0.8
Cc1ccc(C)c(C(=O)OCC(=O)C(C)(C)C)c1 | -2.0 | /
Cc1nc(-c2nnc(-c3ccccc3)o2)c(C(F)(F)F)o1 | / | -0.6
Next part:
SMILES | Sa helicase inh | MgrA DNA FP
COC(=O)c1cc(C23CC4CC(CC(C4)C2)C3)oc1C | 14.0 | -0.4
COc1ccc(Nc2cnc(=O)nc3ccccc23)cc1 | 13.0 | /
Cc1ccc2c(CNCCc3ccco3)c(C(=O)O)n(Cc3ccccc3)c2c1 | 5.0 | 0.1
O=C(CC(c1ccc(F)cc1)c1ccco1)N1CCCCC1 (configuration not stated) | 7.0 | /
COc1ccc(-c2nn(-c3ccccc3)cc2C(=O)Nc2ccc3[nH]c(=O)[nH]c3c2)cc1 | -13.0 | /
CC(C)N(CCC#N)C(=O)Nc1ccc2c(c1)CCO2 | 5.0 | /
Cc1ccccc1CN1CCNC(=O)C1CC(=O)O (configuration not stated) | -31.0 | /
O=C(CSc1nc2ccccc2c(=O)n1C1CCCC1)Nc1ccc2c(c1)OCCO2 | -11.0 | /
CSc1ccc(S(=O)(=O)Nc2ccccc2)cc1 | 13.0 | 1.1
Nn1c2ccccc2c2ccccc21 | 23.0 | /
CCSc1ncnc2sc3c(c12)CCC3 | -14.0 | -0.9
O=C(CCc1ccccc1)NC(c1ccc2c(c1)OCO2)c1c(O)ccc2ccccc12 (configuration not stated) | 8.0 | -0.9
CCn1c(SCCN2CCCC2)nnc1C1CCCN(S(C)(=O)=O)C1 (configuration not stated) | 6.0 | -0.1
Nc1nc2ccc(S(=O)(=O)c3ccc4nc(N)sc4c3)cc2s1 | 2.0 | /
CC1CC(C)(C)NC(=S)N1CCC(=O)N1CCc2ccccc2C1 (configuration not stated) | 10.0 | -0.8
COC(=O)c1cccc(C(=O)Nc2ccc(F)cc2)n1 | 10.0 | -0.9
O=C(Nc1ccccc1)N1CCC(C(=O)N2CCc3ccccc3C2)CC1 | -12.0 | /
O=C(Nc1ccc(F)cc1)C1CCC(N2C(=O)C3C4C=CC(C4)C3C2=O)CC1 (configuration not stated) | 6.0 | /
CC1(C)CC(=O)C2=C(C1)OC1=C(C(=O)CC(C)(C)C1)C2c1ccccc1 | / | -0.9
COc1ccc(NC(=O)C(C)Oc2ccc3c(C)c(CCC(C)C)c(=O)oc3c2)cc1 (configuration not stated) | 12.0 | -0.5
Cc1ccc(-c2cn3ccccc3n2)cc1 | -1.0 | 1.7
Cc1cc(=O)n2[nH]c(S(C)(=O)=O)nc2n1 | -1.0 | 10.3
CC1=Nc2cc(C(=O)N3CCOCC3)ccc2Sc2ccccc21 | 9.0 | /
CCn1c2ccccc2c2nnc(NCCCN3CCN(c4cccc(Cl)c4)CC3)nc21 | -4.0 | /
